Bioassay records: PubChem BioAssay, Center for Chemical Genomics, University of Michigan
CDC25B CDK2 inh – primary biochemical HTRF screen for blockers of M-phase inducer phosphatase 2 binding to CDK2/cyclin A; P30305+P24941; HTRF CDC25B-CDK2/CyclinA binding, anti-His/anti-Flag; stronger effect = higher value; z-score (test concentration not listed); 94,000 compounds, 0.72% hits;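 also: score is relative to mean and SD of negative controls; strong numbers were not always called active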
HIV TAR-Tat – TAR RNA-Tat peptide displacers, HIV-1, primary screen, biochemical, FRET, FAM/TAMRA-labeled Tat. z-score (test concentration not listed). HIV-1 TAR RNA, Tat peptide displacement FRET; stronger effect = higher value. 100,000 compounds, 0.6% hits;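 also: score is relative to mean and SD of negative controls; some compounds called inactive have numbers as strong as hits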
* hit, by the source's call; / = no result given.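 The calls were made as follows: active = z-score from 3 up in half or more of its runs; inactive = the rest.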

SMILES	CDC25B CDK2 inh	HIV TAR-Tat
Cc1cc(C)c2c(c1)-c1cc(C)nn1C(c1ccccc1O)N2 (configuration not stated)	-1.4	2.2
C=CCc1ccccc1OCc1cc(=O)n2nc(-c3ccc(OC)cc3)sc2n1	-2.2	-1.3
O=C(CSc1nnc2c3ccccc3nc(-c3ccccc3)n12)Nc1ccc2c(c1)OCO2	/	1.1
NC(=O)Cc1nc(-c2ccc(Br)cc2)cs1	-2.3	0.78
CCOC(=O)C1CCCN(c2c(N3CCN(c4ccc(F)cc4)CC3)c(=O)c2=O)C1 (configuration not stated)	-0.02	2.3
CC(C)CCNc1nc(-c2ccccc2F)no1	/	0.19
CCSc1nnc2c(=O)[nH]c(=O)[nH]c2n1	-2.2	2.6
CCOc1cc(C2c3c(-c4ccccc4O)n[nH]c3C(=O)N2CCO)ccc1O (configuration not stated)	-1.7	-0.74
CCC(=O)N1CCc2cc(S(=O)(=O)NC(CC(C)C)C(=O)NC3CCCCC3)ccc21 (configuration not stated)	3.6	1.2
COC(=O)c1cc(=O)nc2sc3cc(C)ccc3n12	-0.86	1.7
CC1CCN(S(=O)(=O)c2ccc(-c3ccc(S(=O)(=O)N4CCC(C)CC4)cc3)cc2)CC1	/	0.5
c1ccc(CNc2ccc3nnc(-c4ccccc4)n3n2)cc1	-2.4	/
Clc1cccc(/C=C/c2nn3c(-c4cccnc4)nnc3s2)c1	-1.3	0.39
CC(=O)NC1=NN(C(C)=O)C(c2sccc2C)S1 (configuration not stated)	0.43	/
CSc1nc(NC(=O)NS(=O)(=O)Cc2ccc(Cl)cc2Cl)nc(N2CCCC2)n1	-2.2	/
CCOC(=O)CSc1nc2ccccc2c(=O)n1CC1CCCCC1	-0.59	0.42
COc1ccc(NC(=O)CSc2nc(-c3ccco3)nc3cc(=O)[nH]n23)cc1OC	/	2.5
C#CCOc1ccc(C2CC(=O)Nc3c2c(C)nn3-c2nc(C)cc(C)n2)cc1OC (configuration not stated)	-0.75	0.18
CC(=O)Nc1ccc(C)cc1C	-0.93	/
CC1CC(C)CN(c2c(-c3ccc(Cl)cc3)c(=O)c2=O)C1 (configuration not stated)	/	0.74

Brought forward from above: 7 entries; new compounds follow.
SMILES	CDC25B CDK2 inh	HIV TAR-Tat
CC(=O)NC1=NN(C(C)=O)C(c2sccc2C)S1 (configuration not stated)	0.43	/
CSc1nc(NC(=O)NS(=O)(=O)Cc2ccc(Cl)cc2Cl)nc(N2CCCC2)n1	-2.2	/
CCOC(=O)CSc1nc2ccccc2c(=O)n1CC1CCCCC1	-0.59	0.42
COc1ccc(NC(=O)CSc2nc(-c3ccco3)nc3cc(=O)[nH]n23)cc1OC	/	2.5
C#CCOc1ccc(C2CC(=O)Nc3c2c(C)nn3-c2nc(C)cc(C)n2)cc1OC (configuration not stated)	-0.75	0.18
CC(=O)Nc1ccc(C)cc1C	-0.93	/
CC1CC(C)CN(c2c(-c3ccc(Cl)cc3)c(=O)c2=O)C1 (configuration not stated)	/	0.74
CCN1CCN(c2nnc(-n3cccc3CNc3cc(F)ccc3F)s2)CC1	/	1.7
COC(=O)C1(C(F)(F)F)N=C(N(C)C)OC(N(C)C)=N1	-0.4	/
COc1ccccc1-c1noc2ncnc(NCCc3ccccc3)c12	/	1.7
CCN1CCN(C(=O)CCCN2C(=O)c3ccccc3Sc3ncccc32)CC1	/	-15
CN(Cc1ccco1)C(=O)C1CCN(c2ccc(Cl)cc2)C1=O (configuration not stated)	/	-0.68
CCOc1ccc(N2C(=O)N(c3ccc(OC)cc3)C3CS(=O)(=O)CC32)cc1 (configuration not stated)	-1.8	2.4
CC(c1ccccc1)N1CCn2c(nc3cc(Cl)ccc32)C1 (configuration not stated)	-2	0.32
COc1cc(OC)c(NS(=O)(=O)c2cc(-c3onc(C)c3C)ccc2OC)cc1Cl	/	1.6
CC1CN(C(=O)Cn2cc(SCC(=O)N(C)c3ccccc3)c3ccccc32)CC(C)O1 (configuration not stated)	/	-0.86
C=CCNC(=O)c1cnc2ccc(C)cn2c1=O	-1.3	-0.67
Cc1ccc(C(C)C)cc1S(=O)(=O)Nc1cccc(-c2cn3ccccc3n2)c1	1.9	1.1
CCc1cc(Nc2ccccc2OC)n2ncnc2n1	-1.2	1.4
CCOC(=O)c1cccc(N2C(=O)C3C(C2=O)C2(C)c4ccccc4C3(C)c3ccccc32)c1 (configuration not stated)	-1.2	/
Cc1cc(NC(=O)C(=O)Nc2ccc3nc4n(c(=O)c3c2)CCCCC4)no1	-0.3	/
Cc1ccc(-c2nc(SC(C)C(=O)Nc3cc(C)ccc3C)[nH]c(=O)c2C#N)cc1 (configuration not stated)	-0.25	0.68
CCOC(=O)CNC(=O)NCc1c(-n2cccc2)sc2c1CCN(C)C2	/	-7.1
CC1CCN(c2nc(C(=O)O)nc3c2oc2ccccc23)CC1	-0.77	-0.28
COC(=O)c1sc2ccccc2c1S(=O)(=O)N1CCc2ccccc2C1	/	0.32
CN(Cc1ccccc1)C(=O)c1ccc(CNc2c(N3CCCC3)c(=O)c2=O)cc1	-1.2	1.6
Cc1c(C(=O)O)[nH]c2c1C(=O)CC(c1cccs1)C2 (configuration not stated)	-0.36	/
CCOC(=O)C[P+](C)(C(C)C)C(C)C	-0.68	/
CCn1c(C(=O)N2CCC(C(=O)NC3CCCc4ccccc43)CC2)cc2sccc21 (configuration not stated)	-0.97	/
COc1ccc(Nc2nc(-c3cc4c(ccc5ccccc54)oc3=O)cs2)cc1	10*	/
O=C(NCCc1c[nH]c2ccccc12)C1CCCN(c2nnc(N3CCCC3=O)s2)C1 (configuration not stated)	/	-0.57
Cc1cccc(Nc2c3c(nc4ncnn24)CCCC3)c1	/	1.1
C=CCOc1ccc(C2CC(=O)Nc3c2c(C)nn3-c2nncc(-c3ccc(C)cc3)n2)cc1OC (configuration not stated)	0.23	2
CCc1nnc(NC(=O)c2snnc2C)s1	-0.86	0.33
CC1CN2C(=O)Cc3c(S(=O)(=O)N4CCN(C)CC4)ccc(c32)S1 (configuration not stated)	/	-7.9
C=CCn1c(NCc2ccc(N(CC)CC)cc2)nc2ccccc21	0.79	0.32
O=S(=O)(c1cccs1)N(Cc1cc(CN2CCOCC2)cs1)c1ccc(F)cc1	/	0.39
O=C(NC1=NCCS1)c1cccs1	-0.68	/
S=c1n(CN2CCOCC2)nnn1-c1ccccc1	-2.6	/
COc1ccc(C2CC(=O)c3cnc(N4CCc5ccccc54)nc3C2)cc1OC (configuration not stated)	-1.8	0.8
Brc1ccc(-c2c[n+]3c(n2-c2ccccc2)SCC3)cc1	-4.1	1.4
CCC(C)NC(=O)Cn1cnc(S(=O)(=O)N2CCc3ccccc32)c1 (configuration not stated)	/	1.1
COc1ccc(OC)c(-n2c(SCC(=O)NCC3CCCO3)nnc2-c2c[nH]c3ccccc23)c1 (configuration not stated)	-0.53	/
CC(C)OC(=O)Cn1c2ccccc2c2nc3ccccc3nc21	-1.4	2.9
Cn1c(CCc2ccc(NS(=O)(=O)Cc3ccccc3)cc2)nc2ccccc21	/	0.93
CCOC(=O)N1CCN(C(=O)c2[nH]nc3c2CCc2ccccc2-3)CC1	/	0.39
COc1ccc2c(c1)CC(C(=O)Nc1ccc(Br)cc1F)CO2 (configuration not stated)	/	1.1

As entered above.
`CCn1c(C(=O)N2CCC(C(=O)NC3CCCc4ccccc43)CC2)cc2sccc21` (configuration not stated) – CDC25B CDK2 inh: -0.97
`S=c1n(CN2CCOCC2)nnn1-c1ccccc1` – CDC25B CDK2 inh: -2.6
`CC1CN2C(=O)Cc3c(S(=O)(=O)N4CCN(C)CC4)ccc(c32)S1` (configuration not stated) – HIV TAR-Tat: -7.9
`C=CCn1c(NCc2ccc(N(CC)CC)cc2)nc2ccccc21` – HIV TAR-Tat: 0.32
`Brc1ccc(-c2c[n+]3c(n2-c2ccccc2)SCC3)cc1` – HIV TAR-Tat: 1.4
`C=CCOc1ccc(C2CC(=O)Nc3c2c(C)nn3-c2nncc(-c3ccc(C)cc3)n2)cc1OC` (configuration not stated) – HIV TAR-Tat: 2

Following part.
SMILES	CDC25B CDK2 inh	HIV TAR-Tat
Cc1cc(C)n(CCc2nc3c4ccccc4nc(NCc4ccc(F)cc4)n3n2)n1	-1.7	0.5
CCCC(Nc1nc(C(=O)OCC)nc2ccccc12)c1cccs1 (configuration not stated)	/	2.2
COc1ccc(OC)c(C(=O)Cn2c3ccccc3n3nc(C)nc23)c1	-0.95	/
O=C1CCCc2cc(S(=O)(=O)NCCCN3CCCc4ccccc43)ccc2N1	/	-1.2
CN(C)Cc1c(O)ccc2ccccc12	-1.3	/
CCc1nc2ccccc2nc1N1CCN(C(=O)c2cccs2)CC1	-1.2	/
O=c1oc2c(Cl)cc(NS(=O)(=O)c3ccccc3)cc2s1	-3.6	0.97
CCOC(=O)C(C)N(Cc1ccccc1)C(=O)Nc1ccc(Cl)cc1 (configuration not stated)	-1.5	/
Cc1nc(N2CCOCC2)c2c(C)c(C(=O)N3CC(C)CC(C)C3)sc2n1 (configuration not stated)	-1.3	/
Cc1cccc(C)c1NC(=S)NCCCC(=O)O	-0.84	/
Cc1csc(Cn2nc(CC(=O)NNC(=S)Nc3ccccc3)c3ccccc3c2=O)n1	0.73	/
Cn1c(=O)sc2cc(NS(=O)(=O)c3ccc(N4CCCC4=O)cc3)ccc21	/	-0.17
Cc1csc(=Nc2ccccc2)n1-c1ccccc1	-0.71	/
CN(C(=O)Cc1c(C(=O)O)n(C)c2ccccc12)c1ccc(Cl)cc1	-0.13	/
Cn1c(=O)c2cn3c(c2n(C)c1=O)C(c1c(O)ccc2ccccc12)Nc1ccccc1-3 (configuration not stated)	-1.3	1
COc1cc(NC(=O)C2CCC(CNc3c(N4CCCC4)c(=O)c3=O)CC2)cc(OC)c1OC (configuration not stated)	-2.6	/
N#Cc1ccccc1NC(=O)CSCCSCC(=O)Nc1ccccc1C#N	-1	/
O=c1[nH]cnc2c1c(-c1ccccc1)cn2-c1ccc(Br)cc1	-1.2	1
O=C(NCCN1CCOCC1)c1cnc2sc3c(n2c1=O)CCCC3	/	1.4
Cc1cc(C)c2c(C)c(C(=O)NCc3csc(C)n3)oc2c1	0.03	1.1

The final two entries of the section before lead into the next:
SMILES	CDC25B CDK2 inh	HIV TAR-Tat
O=C(NCCN1CCOCC1)c1cnc2sc3c(n2c1=O)CCCC3	/	1.4
Cc1cc(C)c2c(C)c(C(=O)NCc3csc(C)n3)oc2c1	0.03	1.1
CC(C)(C)SCCSC1=CC(=O)CC(c2ccccc2)C1 (configuration not stated)	-1.3	/
O=C(Nc1cc(Cl)ccc1O)C1CC(c2cccc(Br)c2)=NO1 (configuration not stated)	-1.6	-4.2
Cc1ccc(C)c2c(=O)cc(CSc3nnc(-c4cccs4)n3C)[nH]c12	/	1.1
CCc1nnc2n1N=C(c1ccc(OC)c(Br)c1)CS2	-0.88	-0.09
COc1cccc(O)c1O	/	13*
Cc1cc(C)nc(-n2nc(C)c3c2NC(=O)CC3c2ccc(F)cc2F)n1 (configuration not stated)	-1.6	2.9
COCc1nc2ccccc2n1CC(C)C	-1.1	0.88
CCOCCCNc1sc(S(=O)(=O)c2ccccc2)nc1S(=O)(=O)c1ccc(C)cc1	-0.48	-1.1
CC1CC(=O)Nc2cc(S(=O)(=O)NCC3CCN(Cc4ccco4)CC3)ccc2S1 (configuration not stated)	/	0.56
c1ccc(OCCSc2nnc(-c3cccs3)o2)cc1	-1.4	1.1
CCCC(CCC)C(=O)Nc1c(C)nc2c(C)cccn2c1=O	/	0.37
CCOc1ccc2nc(-n3nc(C)c4c3NC(=O)CC4c3cc(C)sc3C)sc2c1 (configuration not stated)	/	0.47
CCN1CCCC1CNC(=O)C1CCN(c2ncnc3c2nc2n3CCCCC2)CC1 (configuration not stated)	/	0.95
CCC(C)NS(=O)(=O)c1ccc2c(c1)c(=O)n(CC(=O)N1CCCC1)c(=O)n2C (configuration not stated)	/	1.9
O=C(O)COc1nc(-c2ccccc2)sc1C(=O)O	-1.1	-1.2
CCCS(=O)(=O)N1CCCc2ccc(NS(=O)(=O)CCc3ccccc3)cc21	/	-0.39
NNC(=O)c1ccc2ncccc2c1	-1.1	/
O=C(c1ccccc1Cl)N1CCn2c1nc1ccccc12	0.01	-0.03
CCOC(=O)c1ccc(-n2c(C)cc(/C=c3\sc4nc5ccccc5n4c3=O)c2C)cc1	1	/
Cc1cccc(Cn2c(=O)n(Cc3ccco3)c(=O)c3sc4ccccc4c32)c1	-2.1	3.4
c1ccc(CCN2CCn3c(nc4ccccc43)C2)cc1	-2.5	-0.28
CCNC(=O)c1c(-c2c(Cl)cccc2Cl)noc1C	1.2	/
CN1C(=O)C(C)(C)c2cc(S(=O)(=O)NC3CCCc4ccccc43)ccc21 (configuration not stated)	/	1.5
CCCCSc1nc2c(c(=O)[nH]1)C(c1ccc(F)cc1)C(C(=O)OC(C)C)=C(C)N2 (configuration not stated)	-0.41	0.39
Cc1cc(N=Cc2cc(Cl)cc(Cl)c2O)no1	-1.9	/
COc1ccc(/C(C)=N/NC2=NCCCN2)cc1	-0.2	/
COC(=O)CN1C(=O)CSc2ccc(S(=O)(=O)NCc3ccco3)cc21	/	-0.32
COC(=O)CN1C(=O)CSc2ccc(S(=O)(=O)Nc3ccccn3)cc21	/	0.35
Cc1nnc2c(Nc3ccc(C(=O)O)cc3)nc3ccc(C(=O)c4ccccc4)cc3n12	/	-0.25
O=C(NCc1cccs1)C1CCN(c2nnc(N3CCCCC3=O)s2)CC1	/	1.3
CC(=O)C(C)(C)OC(=O)N1CCSCC1	-1.1	/
COc1ccc(C2CC(=O)C3=C(C2)Nc2ccccc2NC3c2cccc(OC)c2OC)cc1OC (configuration not stated)	-1.2	-0.91
O=C(O)CSc1nc2c(c(C(F)(F)F)n1)CCc1ccccc1-2	-0.05	2.8
O=C(O)C(Cc1ccccc1)Nc1ncnc2sc3c(c12)CCC3 (configuration not stated)	-1.7	0.86
CSc1ccc(C2Nc3ccccc3S(=O)(=O)N2)cc1 (configuration not stated)	/	1.9
